DUX4 txn inh = DUX4-mediated transcription inhibition. 293T-iDUX4 ZSCAN4-Gaussia luciferase reporter, 24 h; active compounds read low. activity change, negative = inhibition, % (no concentration beside the values). 37,000 compounds, 0.8% hits. AID 1224904;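 active = -10% or lower and over 25 points stronger than a control reporter; inconclusive = -10% or lower with a smaller gap; inactive = above -10%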;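 note: 0% = median of neutral control wells and -100% = median of positive control wells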
DUX4 txn inh difference = further read-out of DUX4 txn inh, marked with its call; Gaussia minus Italica difference, %; measured here: selective DUX4 reporter inhibition;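 worked out from the two reporters; negative = selective loss of the DUX4 reporter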
DUX4 txn inh control = further read-out of DUX4 txn inh, marked with its call; activity change, negative = inhibition, %; measured here: Italica tet-on control reporter;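 0 = neutral control and -100 = positive control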
Active calls of the source: *; ? = inconclusive; nt = not tested or not shown; & = joins results of further samples. An excerpt. The share of hits here may be higher or lower than overall.

DUX4 txn inh difference | DUX4 txn inh control | DUX4 txn inh | smiles
0 | 1.8 | 1 | C[C@@H]1CN([C@@H](C)CO)C(=O)c2cc(NS(=O)(=O)c3cccs3)ccc2O[C@@H](C)CCCCO[C@@H]1CN(C)C(=O)c1ccncc1
9 | 13 | 22 | COc1ccc(-c2ccc([C@H]3[C@@H](CO)N4C(=O)CNC[C@H]34)cc2)cc1
-2 | 0.5 | -1 | COc1ccc(NC(=O)N(C)C[C@@H]2OCCCC[C@@H](C)Oc3ccc(NC(=O)c4ccncc4)cc3C(=O)N([C@H](C)CO)C[C@@H]2C)cc1
-3 | 4.4 | 1 | COCCNC(=O)[C@@H]1[C@@H](CO)[C@@H]2Cn3c(cccc3=O)[C@H]1N2Cc1cccc(Cl)c1
12 | -2.7 | 9 | O=C(O)C[C@@H]1C[C@H]2c3cc(NC(=O)Nc4ccc(C(F)(F)F)cc4)ccc3O[C@H]2[C@@H](CO)O1
9 | -15 | -6 | COc1ccc(C#Cc2ccc([C@@H]3[C@@H](CO)N4C(=O)CN(C(=O)C5CCOCC5)C[C@@H]34)cc2)cc1
16 | -4.6 | 11 | CN(C)C(=O)c1ccc(-c2ccc([C@@H]3[C@@H](CO)N4CCCCN(CCC(F)(F)F)C[C@@H]34)cc2)cc1
-3&4 | 2.9&11 | -1&15 | Cc1ccc(S(=O)(=O)N2[C@@H]3CNC[C@H]2C3c2ccc(-c3cccnc3)cc2)cc1 (stereo partly drawn)
0 | -5.9 | -6 | O=C(Cc1cccnc1)N1CC2(C1)[C@H](c1ccccc1)[C@H](CO)N2C(=O)C1CCCC1
-13 | 6.1 | -7 | COc1ccc2c3c([nH]c2c1)[C@H](CO)N(C(=O)Nc1ccc(F)cc1)CC31CN(C(=O)Nc2ccccc2)C1
5 | -6.4 | -2 | C[C@H](CO)N1C[C@H](C)[C@H](CN(C)C(=O)Nc2ccc(-c3cccs3)cc2)OCc2cnnn2CCCC1=O
1 | -2.0 | -1 | CCC(=O)Nc1ccc2c(c1)C(=O)N(C)[C@H]1CC[C@@H](CC(=O)N[C@H](C)c3ccccc3)O[C@H]1CO2
-1 | 0.1 | -1 | COc1ccc(-c2ccc3n(c2=O)C[C@H]2[C@H](CO)[C@@H](C(=O)NC4Cc5ccccc5C4)N[C@@H]32)cc1
-4 | 1.7 | -2 | CCC(=O)NC[C@H]1[C@@H](c2ccc(-c3ccccc3)cc2)[C@H](CO)N1C(=O)C1CC1
2 | -2.5 | 0 | N#C[C@H]1[C@H](c2ccccc2)[C@@H](CO)N1C(=O)C1CCCC1
1 | -1.1 | 0 | CC(C)NC(=O)N(C)C[C@@H]1OCc2cn(nn2)CCCC(=O)N([C@H](C)CO)C[C@@H]1C
2 | -0.7 | 1 | COc1ccc(NC(=O)N(C)C[C@H]2Oc3c(NC(=O)CCCCCC(=O)Nc4ccccc4N)cccc3C(=O)N([C@H](C)CO)C[C@H]2C)cc1
3 | -0.5 | 3 | O=C(C[C@H]1C[C@@H]2c3cc(NC(=O)NC4CCCCC4)ccc3O[C@@H]2[C@H](CO)O1)NCc1cccnc1
2 | -1.7 | 0 | CCN1[C@@H]2Cn3c(ccc(-c4ccccc4)c3=O)[C@H]1[C@@H](C(=O)NCc1ccccc1)[C@@H]2CO
0 | 1.8 | 2 | CC(=O)N1[C@H](CO)[C@H]2c3ccccc3N(S(=O)(=O)c3ccccc3C)C[C@H]21

More structures follow.
DUX4 txn inh difference | DUX4 txn inh control | DUX4 txn inh | smiles
nt | nt | ? | C[C@H](CO)N1C[C@H](C)[C@H](CN(C)Cc2ccc3c(c2)OCO3)OCc2ccccc2-c2c(n(C)c3ccccc23)C1=O
-1 | 1.3 | 1 | O=C(C[C@@H]1CC[C@@H]2[C@H](COC[C@H](O)CN2Cc2cccc(Cl)c2)O1)N1CCCCC1
6 | 4.1 | 11 | O=C(C[C@@H]1C[C@@H]2c3cc(NC(=O)NC4CCCCC4)ccc3O[C@@H]2[C@@H](CO)O1)NCc1ccccn1
-4 | 3.6 | -1 | CS(=O)(=O)N1[C@H](C#N)[C@@H](c2ccc(-c3ccccc3F)cc2)[C@H]1CO
4 | -5.3 | -2 | C[C@@H]1CCCCO[C@H](CN(C)S(=O)(=O)c2ccc(Cl)cc2)[C@@H](C)CN([C@H](C)CO)C(=O)c2cc(NC(=O)Nc3ccc(C(F)(F)F)cc3)ccc2O1
12 | 4.4 | 16 | C[C@H]1CN([C@@H](C)CO)C(=O)c2ccccc2-c2ccccc2CO[C@H]1CN(C)Cc1ccncc1
-2 | 0.1 | -2 | COCC(=O)N(C[C@H]1N[C@H](CO)[C@@H]1c1ccc(-c2ccccc2)cc1)C(C)C
6 | 9.4 | 15 | O=C(CC1CC1)N1CC(=O)N2[C@H](C1)[C@H](c1ccc(-c3cccnc3)cc1)[C@@H]2CO
7 | -0.7 | 7 | C[C@@H]1CN([C@H](C)CO)C(=O)CCCn2nncc2CO[C@@H]1CN(C)S(=O)(=O)c1ccc2c(c1)OCCCO2
-2 | -3.3 | -5 | C[C@@H]1CCCCO[C@H](CN(C)S(=O)(=O)c2ccc(Cl)cc2)[C@@H](C)CN([C@H](C)CO)C(=O)c2cc(NC(=O)CCCN(C)C)ccc2O1
-1 | 3.3 | 2 | CN1C(=O)c2cc(NS(=O)(=O)c3ccccc3F)ccc2OC[C@H]2O[C@@H](CC(=O)NC3Cc4ccccc4C3)CC[C@@H]21
-3 | 1.7 | -2 | CC(=O)N1[C@@H](CO)[C@@H](c2ccccc2)[C@@H]1CN(CC(C)C)C(=O)c1ccccn1
0 | 0.0 | 1 | CC(C)NC(=O)N1[C@H](CNC(=O)CN(C)C)[C@@H](c2ccccc2)[C@@H]1CO
-2 | -4.4 | -7 | CCC(=O)N1[C@H](CO)[C@H](c2ccc(-c3ccccc3OC)cc2)[C@H]1CNC(C)=O
-2 | 1.6 | -1 | CCS(=O)(=O)N1[C@H](C#N)[C@H](c2ccc(C#CCC3CCCC3)cc2)[C@@H]1CO
nt | nt | ? | O=C(Nc1ccccc1F)N1CCCCN2[C@H](CO)[C@H](c3ccc(/C=C/c4ccccc4)cc3)[C@@H]2C1
10 | 5.1 | 15 | CN(C)CC#Cc1ccc([C@@H]2[C@H](CO)N3CCCCN(C(=O)Nc4ccc(F)cc4)C[C@@H]23)cc1
13 | 10 | 24 | COc1cccc(-c2ccc3c(c2)[C@@H]2[C@@H](CCN2C(=O)CN2CCOCC2)[C@@H](CO)N3)c1
1 | 0.8 | 2 | C[C@@H]1CN([C@H](C)CO)C(=O)CCCn2cc(nn2)CO[C@H]1CN(C)S(=O)(=O)c1ccc(Oc2ccccc2)nc1
nt | nt | ? | COc1ccc(C#Cc2ccc3c(c2)[C@H]2[C@H](CCN2C(=O)c2ccncc2)[C@H](CO)N3)cc1

Reprinted from the part before: 2 compounds; new compounds follow.
DUX4 txn inh difference | DUX4 txn inh control | DUX4 txn inh | smiles
1 | 0.8 | 2 | C[C@@H]1CN([C@H](C)CO)C(=O)CCCn2cc(nn2)CO[C@H]1CN(C)S(=O)(=O)c1ccc(Oc2ccccc2)nc1
nt | nt | ? | COc1ccc(C#Cc2ccc3c(c2)[C@H]2[C@H](CCN2C(=O)c2ccncc2)[C@H](CO)N3)cc1
-3 | 0.6 | -2 | CNC[C@@H]1Oc2c(NS(=O)(=O)c3c(C)noc3C)cccc2C(=O)N([C@H](C)CO)C[C@@H]1C
-3 | 2.4 | -1 | CO[C@@H]1CN(C)C(=O)c2cc(NS(C)(=O)=O)ccc2OC[C@H](C)N(C(=O)CC2CC2)C[C@@H]1C
-2 | 1.1 | -1 | CCCC#Cc1ccc2c(c1)O[C@H](CN(C)C(=O)CC1CC1)[C@H](C)CN([C@@H](C)CO)S2(=O)=O
6 | -2.4 | 3 | CC[C@@H]1CC=CC[C@H](C)Oc2ccccc2C(=O)N(C)[C@H](Cc2ccccc2)C(=O)N1 (mixture of isomers)
1 | -2.3 | -2 | COc1ccc(S(=O)(=O)Nc2ccc3c(c2)CC(=O)N([C@@H](C)CO)C[C@H](C)[C@@H](CN(C)Cc2ccc(C(=O)Nc4ccccc4N)cc2)O3)cc1
-1 | 0.0 | -1 | COc1ccc(CNC(=O)C[C@@H]2C[C@@H]3c4cc(NC(=O)NC5CCCC5)ccc4O[C@@H]3[C@@H](CO)O2)cc1
-3 | -0.1 | -3 | CN1[C@H](C(=O)NC2CCCCC2)[C@@H](CO)[C@@H]2Cn3c(ccc(/C=C/c4ccccc4)c3=O)[C@@H]21
1 | -0.5 | 1 | CC[C@@H]1C/C=C\C[C@H](c2ccc(F)cc2)NC(=O)CCC(=O)N1
2 | -3.1 | -1 | C/C=C/c1ccc([C@H]2[C@@H](CNC(=O)NC(C)C)N(C(=O)C3CC3)[C@H]2CO)cc1
0 | 1.1 | 2 | C/C=C/c1ccc([C@H]2[C@@H](CO)N[C@@H]2CNC(=O)C2CCC2)cc1
0 | 1.9 | 2 | COC(=O)C[C@@H]1C[C@@H]2c3cc(NC(=O)c4ccc5c(c4)OCO5)ccc3O[C@@H]2[C@H](CO)O1
-4 | 3.7 | -1 | CCC(=O)N1[C@H](C(=O)N2CCCCC2)[C@@H](CO)[C@@H]2Cn3c(cccc3=O)[C@@H]21
-3 | 0.5 | -3 | CCCNC(=O)Nc1ccc2c(c1)OC[C@H](C)N(CCC(F)(F)F)C[C@@H](C)[C@H](OC)CN(C)C2=O
0 | 2.8 | 3 | NCC[C@@H]1CC[C@@H](NS(=O)(=O)c2ccc(Cl)cc2)[C@H](CO)O1
2 | -1.8 | 0 | Cc1noc(C)c1NC(=O)Nc1ccc2c(c1)CC(=O)N([C@H](C)CO)C[C@H](C)[C@H](CN(C)C(=O)NC1CCCCC1)O2
-4 | 12 | 8 | COCC(=O)N1CC2(C1)[C@@H](c1ccc(-c3cccc(F)c3)cc1)[C@@H](CO)N2C(=O)C1CC1
10 | -8.3 | 2 | N#C[C@@H]1[C@H](c2ccccc2)[C@@H](CO)N1C(=O)c1ccccc1F
-1 | 1.3 | 0 | Cc1ccc(S(=O)(=O)N(C)C[C@@H]2OCCCC[C@H](C)Oc3ccc(NC(=O)C4CCCCC4)cc3C(=O)N([C@H](C)CO)C[C@H]2C)cc1
7 | -2.9 | 4 | CN1c2ccc(-c3cccc(C#N)c3)cc2[C@@H]2[C@@H](CCN2C(=O)CN2CCOCC2)[C@@H]1CO
-6 | 6.1 | 0 | O=C(NCCc1ccncc1)[C@H]1[C@H](CO)[C@H]2Cn3c(cccc3=O)[C@@H]1N2Cc1ccccc1F

Going on with the list.
DUX4 txn inh difference | DUX4 txn inh control | DUX4 txn inh | smiles
8 | -0.4 | 7 | CCCC(=O)Nc1ccc2c(c1)OC[C@H](C)N(C(=O)c1cccnc1)C[C@@H](C)[C@H](OC)CN(C)C2=O
-3 | 22 | 18 | COCC(=O)N1CC2(CCN(C(=O)c3cccnc3)CC2)c2c([nH]c3cc(OC)ccc23)[C@H]1CO
-6 | 3.7 | -3 | CN1[C@H](C(=O)NCC(F)(F)F)[C@@H](CO)[C@@H]2Cn3c(ccc(-c4ccccc4F)c3=O)[C@@H]21
-3 | -4.7 | -8 | CC=Cc1ccc2n(c1=O)C[C@@H]1[C@@H](CO)[C@H](C(=O)NCC3CC3)N(CC3CCOCC3)[C@H]21 (mixture of isomers)
10 | -9.1 | 0 | CC(C)c1cn(CC[C@@H]2CC[C@H](NC(=O)Nc3cc(Cl)cc(Cl)c3)[C@@H](CO)O2)nn1
-6 | 5.5 | 0 | CCCNC(=O)C[C@H]1CC[C@H]2[C@@H](COC[C@@H](O)CN2C(=O)Nc2ccc(Cl)c(Cl)c2)O1
5 | -15 | -10 | O=C(Nc1ccc2c(c1)[C@H]1C[C@@H](CC(=O)N3CCc4ccccc4C3)O[C@@H](CO)[C@H]1O2)Nc1ccccc1F
nt | nt | ? | COc1ccc(C#Cc2ccc([C@@H]3[C@H]4CN(S(=O)(=O)c5cn(C)cn5)CCCCN4[C@H]3CO)cc2)cc1
-3 | -0.2 | -3 | C[C@H](O)C#Cc1ccc2c(c1)O[C@H](CN(C)C(=O)C1CCCCC1)[C@H](C)CN([C@@H](C)CO)S2(=O)=O
-4 | -1.1 | -5 | C/C=C/c1ccc([C@H]2[C@@H](CO)N(C(=O)CC)[C@@H]2CNC(=O)CC)cc1
-1 | -2.0 | -3 | O=C(c1cccnc1)N1C[C@H]2[C@@H](c3ccccc31)[C@H](CO)N2C(=O)C1CCOCC1
-3 | 5.4 | 2 | CO[C@H]1CC[C@@H]2CCN(C)C(=O)[C@H](C)[C@@H](OC)CN(C)C(=O)c3cccc(C#N)c3OC[C@@H]1O2
35 | -31 | 4 | CN1c2ccc(-c3cccc(F)c3)cc2[C@H]2[C@H](CCN2C(=O)Cc2cccnc2)[C@@H]1CO
-7&11 | 16&0.8 | 9&12 | CS(=O)(=O)N1[C@@H]2CNC[C@H]1C2c1ccc(-c2ccccc2)cc1 (stereo partly drawn)
nt | nt | ? | COc1cccc(S(=O)(=O)N2CCCCN3[C@H](CO)[C@H](c4ccc(-c5cccnc5)cc4)[C@@H]3C2)c1
0 | -3.3 | -3 | O=C(CC(F)(F)F)N1C[C@@H]2[C@H](c3ccccc31)[C@@H](CO)N2Cc1cccnc1
-3 | 4.0 | 1 | C[C@@H]1CN([C@@H](C)CO)C(=O)CCCn2nncc2CO[C@@H]1CN(C)Cc1ccc2c(c1)OCO2
-7 | -1.1 | -8 | O=C(c1ccccc1)N1CC2(C1)[C@H](c1ccccc1)[C@@H](CO)N2Cc1ccccn1

One compound at a time, as listed above.
`C[C@H](O)C#Cc1ccc2c(c1)O[C@H](CN(C)C(=O)C1CCCCC1)[C@H](C)CN([C@@H](C)CO)S2(=O)=O` as listed: DUX4 txn inh difference = -3; DUX4 txn inh control = -0.2; DUX4 txn inh = -3
`O=C(CC(F)(F)F)N1C[C@@H]2[C@H](c3ccccc31)[C@@H](CO)N2Cc1cccnc1` as listed: DUX4 txn inh difference = 0; DUX4 txn inh control = -3.3; DUX4 txn inh = -3
`CC=Cc1ccc2n(c1=O)C[C@@H]1[C@@H](CO)[C@H](C(=O)NCC3CC3)N(CC3CCOCC3)[C@H]21` (mixture of isomers) as listed: DUX4 txn inh difference = -3; DUX4 txn inh control = -4.7; DUX4 txn inh = -8
